Screening results: PubChem BioAssay, National Center for Advancing Translational Sciences (NCATS)
VACV mCherry inh: vaccinia inhibition (mCherry reporter). AID 720579. hit rate 0.63% among 310,000. Potency, µM (series often up to 36.5 µM), inactives show top-dose activity change, negative = inhibition, actives largely listed as inhibitors. Vaccinia virus mCherry reporter infection, fluorescence; about a quarter of the inactives have no number; active = well fitted inhibition curve with a large enough effect; inconclusive = small, poorly fitted or top-dose-only effect; inactive = no such curve, though single readings can be large or run the other way; tested in A549 cells; note: nearly all actives have a fitted effect of over 35% in size; inactives centre near -10
Vaccinia Venus: vaccinia inhibition (Venus reporter); Vaccinia virus Venus reporter expression, fluorescence; Potency, µM (series often up to 36.5 µM), without a hit: at the top dose activity change, negative = inhibition, most hits filed as inhibitors; hit rate 0.46% among 330,000; AID 720580; active means well fitted inhibition curve with a large enough effect; inconclusive means small, poorly fitted or top-dose-only effect; inactive means no such curve, though single readings can be large or run the other way; tested in A549 cells; note: nearly all actives have a fitted effect of over 30% in size; inactives centre near -10
* = called active by the depositor; & = joins results of further samples; [ ] = dose if it differs, or a comment. % is set by controls: 0 for no effect and ±100 for the full control effect; potency is the fitted concentration of half-maximal effect.

`COc1ccccc1C(CNC(=O)c1ccc(NS(=O)(=O)c2ccc3c(c2)OCCO3)cc1)N(C)C` (stereo not given) gave VACV mCherry inh inactive and Vaccinia Venus -12%.
`O=C(OCC(=O)N1CCN(S(=O)(=O)c2ccc(Cl)cc2)CC1)c1cccc(OC(F)F)c1` gave VACV mCherry inh inactive and Vaccinia Venus -11%.
For O=C1CCCC2=C1C(c1ccc(O)c(O)c1)Nc1ccc3ccccc3c12 (stereo not given) the results were VACV mCherry inh -19% and Vaccinia Venus -16%.
`COc1cccc(N2CCN(C(=O)CN(C)S(=O)(=O)c3ccc4c(c3)c(=O)n(C)c(=O)n4C)CC2)c1` gave VACV mCherry inh -10% and Vaccinia Venus -12%.
CCN1C(=NCc2cc(OC)c(OC)c(OC)c2)N[C@@H](c2cccc(C(F)(F)F)c2)C(C(=O)OC)=C1C was read as VACV mCherry inh -7% and Vaccinia Venus -20%.
For Cc1ccc(-c2cc(C(F)(F)F)c(C#N)c(SCC(=O)Nc3ccccc3F)n2)cc1 the results were VACV mCherry inh -10% and Vaccinia Venus -9%.
`Nc1ccccc1C(=O)NCc1ccco1` gave VACV mCherry inh inactive and Vaccinia Venus -2%.
Screening CC(C)(C)SCCNC(=O)CSCc1ccc([N+](=O)[O-])cc1 returned VACV mCherry inh -14% and Vaccinia Venus -13%.
Screening COCCNC(=O)CSc1nnc(-c2ccc(OC)c(OC)c2)c(-c2ccc(OC)c(OC)c2)n1 returned VACV mCherry inh -7% and Vaccinia Venus -13%.
For CCc1nn2c(=O)cc(COC(=O)c3ccc(NC(=O)CCc4ccccc4)cc3)nc2s1 the results were VACV mCherry inh -12% and Vaccinia Venus -15%.

Overlap with the part before: four compounds, followed by the next part.
`Nc1ccccc1C(=O)NCc1ccco1` gave VACV mCherry inh inactive and Vaccinia Venus -2%.
Screening CC(C)(C)SCCNC(=O)CSCc1ccc([N+](=O)[O-])cc1 returned VACV mCherry inh -14% and Vaccinia Venus -13%.
Screening COCCNC(=O)CSc1nnc(-c2ccc(OC)c(OC)c2)c(-c2ccc(OC)c(OC)c2)n1 returned VACV mCherry inh -7% and Vaccinia Venus -13%.
For CCc1nn2c(=O)cc(COC(=O)c3ccc(NC(=O)CCc4ccccc4)cc3)nc2s1 the results were VACV mCherry inh -12% and Vaccinia Venus -15%.
CCOc1ccccc1NC(=O)CSc1nncc2ccccc12 was read as VACV mCherry inh -14% and Vaccinia Venus -26%.
Cc1ccc(NC(=O)CSc2nnc(CNC(=O)c3ccccc3F)o2)cc1 was read as VACV mCherry inh inactive and Vaccinia Venus -21%.
`Cc1ccccc1Nc1nc2ccccc2n1C(C)C` gave VACV mCherry inh -18% and Vaccinia Venus 4%.
`O=C(O)c1ccccc1N1C(=O)C2C3CCC(C3)C2C1=O` (stereo not given) gave VACV mCherry inh -10% and Vaccinia Venus -12%.
`O=C1CNC(=S)N1Cc1ccc(Cl)cc1` gave VACV mCherry inh -17% and Vaccinia Venus 38%[activator].
Screening CCOc1ccc(S(=O)(=O)N2CCCCC2)cc1NC(=O)CN1C(=O)NC(C)(c2ccc(C)cc2)C1=O (stereo not given) returned VACV mCherry inh inconclusive and Vaccinia Venus inconclusive.
Screening CCCCNC(=O)C1(C)CCN1C(=O)c1cccc(OC(F)(F)F)c1 (stereo not given) returned VACV mCherry inh 5% and Vaccinia Venus -18%.
CC1(C)Oc2ccc(C(=O)N3CCOCC3)cc2N(CC(=O)Nc2ccccc2)C1=O was read as VACV mCherry inh -23% and Vaccinia Venus -22%.
O=C(c1ccc([N+](=O)[O-])cc1)N1CCSC1c1ccc(Br)cc1 (stereo not given) was read as VACV mCherry inh -6% and Vaccinia Venus -14%.
Screening CN(C)c1ncnc2c1ncn2[C@H]1CN(Cc2cccnc2)C[C@@H](CO)O1 returned VACV mCherry inh 23% and Vaccinia Venus 7%.
Screening COc1ccc(OC)c(Nc2nc3ccccc3nc2-n2nc(C)cc2C)c1 returned VACV mCherry inh -16% and Vaccinia Venus -16%.
`CN(CC(=O)Nc1ccc(C(N)=O)cc1)CC(=O)Nc1ccccc1Cl` gave VACV mCherry inh -14% and Vaccinia Venus -18%.
`Cc1ccc2nc(SCC(=O)Nc3ccc(F)cc3F)nc(=O)n2c1` gave VACV mCherry inh -12% and Vaccinia Venus -10%.
COc1ccccc1NC(=O)CSc1nc2ncccc2[nH]1 was read as VACV mCherry inh -17% and Vaccinia Venus -8%.
For CCCCCNc1nc2sc3c(c2c(=O)n1-c1cccc(Cl)c1)CCN(C)C3 the results were VACV mCherry inh -29% and Vaccinia Venus -30%.
For COCCN1C(=O)COc2ccccc2C1C(=O)Nc1ccc2c(c1)OCCO2 (stereo not given) the results were VACV mCherry inh inactive and Vaccinia Venus -2%.
Screening CC(C)n1c(=N)c(C(=O)NCc2ccccc2)cc2c(=O)n3ccccc3nc21 returned VACV mCherry inh -16% and Vaccinia Venus -5%.
Screening FC(F)(F)c1cc(N2CCNCC2)c2ccccc2n1 returned VACV mCherry inh -13% and Vaccinia Venus -2%.
Screening COC(=O)CC1NC2CCCCC2NC1=O (stereo not given) returned VACV mCherry inh -10% and Vaccinia Venus -5%.
`COc1ccccc1C(=O)NNC(=O)c1ccc(NC(=O)CC(C)C)cc1` gave VACV mCherry inh inactive and Vaccinia Venus -17%.
CSc1nc(N(C)NC(=O)c2ccc(Cl)cc2)c2ccccc2n1 was read as VACV mCherry inh -19% and Vaccinia Venus inconclusive.
For COc1cccc(NC(=O)c2ncn[nH]2)c1 the results were VACV mCherry inh -15% and Vaccinia Venus -9%.
`O=C(NCCN1CCc2ccccc2C1)C1CCN(S(=O)(=O)N2CCC3(CC2)OCCO3)CC1` gave VACV mCherry inh -16% and Vaccinia Venus -4%.
Screening N=C(N)N1CCc2ccccc21 returned VACV mCherry inh inactive[7.34 µM] and Vaccinia Venus -8%[7.34 µM].
O=C(CN1C(=O)/C(=C/c2ccccc2F)Sc2ccccc21)NCc1cccnc1 was read as VACV mCherry inh -5% and Vaccinia Venus 0%.
Screening Cn1cc(CNC(=O)c2cc(-c3ccccc3)nc3ccc(Br)cc23)cn1 returned VACV mCherry inh -10% and Vaccinia Venus -1%.
Screening Cc1ccc(Nc2nc3ccccc3s2)cc1 returned VACV mCherry inh -4% and Vaccinia Venus -26%.
CCOC(=O)c1cnn2c(C(F)(F)F)cc(-c3ccc(Br)cc3)nc12 was read as VACV mCherry inh -11% and Vaccinia Venus -14%.
Screening COc1ccccc1-c1cnc2c(Nc3cccc(OC(F)(F)C(F)F)c3)nccn12 returned VACV mCherry inh -8% and Vaccinia Venus -6%.
`CCn1nc(CC(C)C)cc1C(=O)N1CCCC(Nc2ccc(F)cc2)C1` (stereo not given) gave VACV mCherry inh -15% and Vaccinia Venus -16%.
O=C(c1ccc(CS(=O)(=O)c2ccc(Br)cc2)o1)N1CCOCC1 was read as VACV mCherry inh 1% and Vaccinia Venus 2%.
Screening Cc1cc(C)n(-c2ccc(C(=O)OCC(=O)Nc3cc(Cl)ccc3[N+](=O)[O-])cc2)n1 returned VACV mCherry inh -10% and Vaccinia Venus -14%.
Cc1csc(NC(=O)CSc2nc3sc(C)c(C)c3c(=O)[nH]2)n1 was read as VACV mCherry inh -2% and Vaccinia Venus -5%.
`CN1CCN(C(=O)CCN2C(=O)/C(=C\c3ccc(Cl)cc3Cl)SC2=S)CC1` gave VACV mCherry inh 9% and Vaccinia Venus 149%[activator].
`COC(=O)[C@H](Cc1ccccc1)NC(=O)C1(OC(C)=O)CC(OC(C)=O)C(OC(C)=O)C(OC(C)=O)C1` (stereo not given in full) gave VACV mCherry inh inactive and Vaccinia Venus -17%.
`COc1ccc(Cl)cc1N1C(=O)/C(=C/c2sccc2C)N=C1SCC(=O)NC1CC1` gave VACV mCherry inh inactive and Vaccinia Venus -10%.
`COc1ccccc1NC(=O)N1CCN(S(C)(=O)=O)CC1` gave VACV mCherry inh 0% and Vaccinia Venus -3%.
`Cc1cc(F)ccc1S(=O)(=O)Nc1nc2ccccc2nc1Cl` gave VACV mCherry inh inactive and Vaccinia Venus 0%.
`O=C(NC(=O)c1ccccc1)OCC(F)(F)F` gave VACV mCherry inh -7% and Vaccinia Venus -5%.
`Cc1cc(C)c(-c2n[nH]c3c2C(c2ccccc2F)N(Cc2ccco2)C3=O)c(O)c1` (stereo not given) gave VACV mCherry inh -13%[7.34 µM] and Vaccinia Venus -10%[7.34 µM].

Filtered by structure: the entries above with a nitro group on carbon
Screening CC(C)(C)SCCNC(=O)CSCc1ccc([N+](=O)[O-])cc1 returned VACV mCherry inh -14% and Vaccinia Venus -13%.
O=C(c1ccc([N+](=O)[O-])cc1)N1CCSC1c1ccc(Br)cc1 (stereo not given) was read as VACV mCherry inh -6% and Vaccinia Venus -14%.
Screening Cc1cc(C)n(-c2ccc(C(=O)OCC(=O)Nc3cc(Cl)ccc3[N+](=O)[O-])cc2)n1 returned VACV mCherry inh -10% and Vaccinia Venus -14%.

Next records follow:
`COc1ccc(S(=O)(=O)NCC2CCCN(C(=O)c3cccnc3)C2)cc1` (stereo not given) gave VACV mCherry inh -10% and Vaccinia Venus -4%.
For O=C(N/N=C/c1ccc2c(c1)OCO2)c1cccs1 the results were VACV mCherry inh inactive and Vaccinia Venus -17%.
`O=C(Nc1ccc(Br)cc1)c1ccc(N2C(=O)C3CC=C(Cl)CC3C2=O)cc1` (stereo not given) gave Vaccinia Venus inconclusive.
Screening COC(=O)c1ccc2ccccc2n1 returned VACV mCherry inh -4% and Vaccinia Venus -5%.
C=CCc1ccc(OC(=O)c2ccccc2)c(OC)c1 was read as VACV mCherry inh -18%&1% and Vaccinia Venus -17%&0%.
Screening CC(c1ccccc1)N1C(=O)NC(NC(=O)C(C)(C)C)(C(F)(F)F)C1=O (stereo not given) returned VACV mCherry inh inactive and Vaccinia Venus -6%.
CN(C(=O)COC(=O)C12CC3CC(CC(C3)C1)C2)c1c(N)n(Cc2ccccc2)c(=O)[nH]c1=O was read as VACV mCherry inh inactive and Vaccinia Venus -7%.
`CCNC(=S)Nc1ccc2c(c1)c(=O)n(C)n2-c1ccc(C(C)(C)C)cc1` gave VACV mCherry inh -16% and Vaccinia Venus inconclusive.
O=C(N/N=C/c1ccc2c(c1)OCO2)c1ccc(Cn2cc([N+](=O)[O-])cn2)o1 was read as VACV mCherry inh -29% and Vaccinia Venus -21%.
`Cc1nc2cc(Cl)c(Cl)cc2n1-c1ccccn1` gave VACV mCherry inh inactive and Vaccinia Venus -19%.
For CCOC(=O)c1c(C)nc(-c2ccccc2)nc1NC(=O)C(C)C the results were VACV mCherry inh -5% and Vaccinia Venus -2%.
For CCCCCCCN1C(N(C)C)=NC[C@@H]1Cc1ccccc1 the results were VACV mCherry inh -4% and Vaccinia Venus -29%.
`Cc1nn(C)cc1S(=O)(=O)N1CCN(c2ccccc2F)CC1` gave VACV mCherry inh -1% and Vaccinia Venus -16%.
O=C(c1cc2nc(C3CC3)cc(C(F)F)n2n1)N1CCOCC1 was read as Vaccinia Venus -10%.
`Cc1cccc(N2CCN(C(C(=O)NCc3ccccc3)c3ccc(F)cc3)CC2)c1C` (stereo not given) gave VACV mCherry inh -26% and Vaccinia Venus -6%.
`COC(=O)CC1=C(C(=O)OC)C(c2cccs2)C(C#N)=C(N)O1` (stereo not given) gave VACV mCherry inh -10% and Vaccinia Venus inconclusive.
For O=C(N/N=C/c1ccsc1)c1cc(O)cc(O)c1 the results were Vaccinia Venus 14%.
For CC(C)NC(=O)N(C)C[C@@H]1Oc2cc(C#Cc3ccccn3)ccc2S(=O)(=O)N([C@@H](C)CO)C[C@H]1C the results were VACV mCherry inh -9% and Vaccinia Venus -7%.
Screening COc1ccccc1Cc1nc(-c2ccc(Br)o2)no1 returned VACV mCherry inh 5% and Vaccinia Venus 8%.
For O=C(Nc1cccnc1Cl)c1cc(-c2cccc(Cl)c2)on1 the results were VACV mCherry inh -2%&-5% and Vaccinia Venus 7%&-12%.
CC1=C(C(=O)OCc2ccccc2)C(c2cccnc2)n2nnnc2N1 (stereo not given) was read as VACV mCherry inh -29% and Vaccinia Venus -25%.
For CCN(CC)C(=O)CSc1nnc(-c2cccnc2)n1CCc1ccccc1 the results were VACV mCherry inh inactive and Vaccinia Venus -6%.
`CCOC(=O)COc1ccc(S(=O)(=O)c2ccc(OCC(=O)OCC)cc2)cc1` gave VACV mCherry inh inactive and Vaccinia Venus -9%.
For COc1ccc(OC)c(NC(=O)C(=O)N/N=C/c2ccccc2[N+](=O)[O-])c1 the results were VACV mCherry inh -4% and Vaccinia Venus -10%.
`COc1ccc(OC)c(S(=O)(=O)NCc2ccc(N3CCN(C)CC3)cc2)c1` gave VACV mCherry inh inactive and Vaccinia Venus -4%.
Screening CCOc1cc(C(=O)Nc2ccc(-c3nc4cc(Cl)ccc4o3)cc2)cc(OCC)c1OCC returned VACV mCherry inh -1% and Vaccinia Venus -3%.
COc1cc(NC(=O)CC2C(=O)N(c3ccc(Cl)cc3)C(=O)N2Cc2cccs2)cc(OC)c1 (stereo not given) was read as VACV mCherry inh -14% and Vaccinia Venus -11%.
Screening COc1ccc(C(=O)Nc2c(N)nc(SCC(=O)c3ccccc3)[nH]c2=O)cc1 returned VACV mCherry inh -26% and Vaccinia Venus -14%.
`CCCOC(=O)c1ccc(Oc2cn[nH]c2-c2ccc(OCC)cc2O)cc1` gave VACV mCherry inh inconclusive and Vaccinia Venus inconclusive.
Screening Cc1ccc(Nc2c(-c3ccc(C)cc3)nc3ccc(C)cn23)cc1 returned VACV mCherry inh inconclusive and Vaccinia Venus inconclusive.
Screening O=C(NCCN1CCC(n2c(=O)[nH]c3ccccc32)CC1)c1ccc(Cl)c(Cl)c1 returned VACV mCherry inh -7% and Vaccinia Venus -1%.

Hits appear at their usual frequency. About 0.87% of those tested had a hit in this group.
